Compound activity: PubChem BioAssay, National Center for Advancing Translational Sciences (NCATS)
Menin MLL FP FL – menin-MLL binding inhibition, fluorescein peptide; Fluorescence polarization, fluorescein-MLL peptide displacement from menin; FP activity change, % at 61.4 µM; 290,000 tested, under 10 active; inconclusive = falling polarisation curve, or a change in total fluorescence; inactive = total fluorescence flat and polarisation flat or rising; no compound was filed as active; the % refers to the polarisation; negative = inhibition;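 further: % of control where 0% means no effect; inhibitors lower the polarisation; unlabelled MLL peptide was the positive control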
Sfp inh – inhibitors of Bacillus subtilis Sfp phosphopantetheinyl transferase | Q9F4F7 | Biochemical Sfp PPTase activity, qHTS | Potency, µM, without a hit: max response, negative = inhibition, usual class: inhibitors | actives 3.5% (n = 310,000) | AID 1490; active means well fitted inhibition curve with a large enough effect; inconclusive means small, poorly fitted or top-dose-only effect, or another doubt; inactive means no such curve, though single readings can be large or run the other way;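 further: the enzyme is Sfp with the accession as filed and its product quenches rhodamine fluorescence; potency means the concentration at half of the fitted maximal effect; 0% = enzyme reaction without inhibitor and -100% = no enzyme wells; top concentration of the series not given in the record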
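Compounds were incubated with enzyme (final 15 nM) for 15 min at room temperature before substrate addition started the reaction. Fluorescence at 525 nm excitation, 598 nm emission was recorded immediately and after 30 minutes.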
D2 PAM – potentiates the human D2 dopamine receptor allosterically. P14416. potentiation, % (concentration not given with the values). actives 0.23% (n = 360,000). DiscoveRx D2 beta-arrestin cells, luminescence, 90 min; 100% = 57 uM dopamine signal. AID 624464; active = potentiation of 50% or more; inconclusive = 30% to 50%; inactive = 30% or less;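 further: compound concentration not given in the record; tested on top of an EC20 dose of dopamine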
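PathHunter D2 cells, attached overnight at 37 deg C, received compound in DMSO plus dopamine at EC20 (50 nM final) for 90 min at 37 deg C. Beta-arrestin recruitment was read as luminescence after 1 h with detection reagent at ambient temperature.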
gsp antagonist – antagonizes gsp, the McCune-Albright syndrome mutation | AID 624288 | gsp-mutant cells, cAMP HTRF, 30 min; control for the full effect not named in the record | Potency, µM (highest dose often 76.9 µM), for inactives: at the top dose activity change, negative = inhibition, hits mostly inhibitors | actives 0.4% (n = 340,000); active = falling curve of any shape with a large fitted effect; inconclusive = falling curve, mostly with a smaller effect; inactive = flat or rising curve; cell line not stated here;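 further: intracellular cAMP measured with PDE inhibitor Ro 20-1724 present during compound exposure; potency means the concentration at half of the fitted maximal effect; on the % scale 0 is the no-effect control and ±100 the full control effect; nearly all actives have a fitted effect of over 65% in size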
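G418-selected cells were plated in DMEM/10% FBS for 16-24 h at 37C, then treated with compounds plus the PDE inhibitor […] (300 uM solution added) for 30 min at 37C. Intracellular cAMP was measured by HTRF after 30 min lysis at room temperature.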
TRPV1 PAM – potentiators of human vanilloid receptor 1 (TRPV1); Q8NER1; TRPV1-expressing cells, Fluo-8 calcium influx, capsaicin EC20 potentiation; host cell line not named in the record; control for the full effect not named in the record; potentiation, % at 8.33 µM; actives 0.02% (n = 320,000); AID 540277; active means potentiation above 80%; inconclusive means 30% to 80%; inactive means below 30%; further: 0% is about no effect
Target sequence (Q8NER1 whole entry, looked up): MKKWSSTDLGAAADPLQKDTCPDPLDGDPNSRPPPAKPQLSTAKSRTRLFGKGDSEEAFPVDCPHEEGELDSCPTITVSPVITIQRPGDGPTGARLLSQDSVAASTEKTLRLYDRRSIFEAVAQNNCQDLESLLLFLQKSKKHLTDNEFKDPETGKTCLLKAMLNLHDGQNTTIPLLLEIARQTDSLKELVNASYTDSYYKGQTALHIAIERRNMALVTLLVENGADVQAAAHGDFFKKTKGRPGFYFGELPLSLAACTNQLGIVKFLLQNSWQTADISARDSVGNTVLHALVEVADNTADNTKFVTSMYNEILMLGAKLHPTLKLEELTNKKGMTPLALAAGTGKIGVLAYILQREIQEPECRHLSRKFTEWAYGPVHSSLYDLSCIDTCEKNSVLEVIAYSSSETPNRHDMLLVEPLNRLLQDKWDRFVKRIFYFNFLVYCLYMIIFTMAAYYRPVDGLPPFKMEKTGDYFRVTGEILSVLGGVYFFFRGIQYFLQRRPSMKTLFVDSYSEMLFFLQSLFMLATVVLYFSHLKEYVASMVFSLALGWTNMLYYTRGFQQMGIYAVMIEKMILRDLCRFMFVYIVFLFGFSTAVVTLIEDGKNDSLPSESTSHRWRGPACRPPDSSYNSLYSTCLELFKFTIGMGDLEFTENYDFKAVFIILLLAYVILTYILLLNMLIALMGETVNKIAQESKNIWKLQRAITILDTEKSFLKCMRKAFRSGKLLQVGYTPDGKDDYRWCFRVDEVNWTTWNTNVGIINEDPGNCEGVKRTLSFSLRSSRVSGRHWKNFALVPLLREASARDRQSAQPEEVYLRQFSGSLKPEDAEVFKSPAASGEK
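Cells expressing TRPV1 were dye-loaded with Fluo-8 and read kinetically: 10 s baseline, 3 min after compound (agonist portion), then 2 min after EC20 capsaicin (allosteric enhancer portion). Calcium-bound dye fluorescence at 480/520 nm.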
ClpP mod – qHTS Assay for Activators of ClpP | ATP-dependent Clp protease proteolytic subunit (Bacillus subtilis (strain 168)), P80244 | AID 651965, 2013 | Potency, µM (titrated, usually from 57.5 µM), for inactives: top-dose activity change, negative = active | actives 1.9% (n = 340,000) | purified B. subtilis ClpP, FRET peptide cleavage, 20 min; active = well fitted falling curve with a large enough effect; inconclusive = small, poorly fitted or top-dose-only effect; inactive = no such curve, though single readings can be large or run the other way; further: potency means the concentration at half of the fitted maximal effect; the source files actives as falling curves though it sought activators and does not explain the sign; nearly all actives have a fitted effect of over 65% in size; many hits overshoot -100%
Target sequence (P80244 whole entry, looked up): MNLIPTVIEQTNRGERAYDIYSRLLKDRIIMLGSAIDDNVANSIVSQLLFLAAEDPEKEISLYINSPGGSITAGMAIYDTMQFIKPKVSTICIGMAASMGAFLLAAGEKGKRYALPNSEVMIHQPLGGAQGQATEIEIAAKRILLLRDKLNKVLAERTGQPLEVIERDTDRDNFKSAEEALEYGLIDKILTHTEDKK
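Buffer: 100 mM Tris/HCl pH8, 100 mM KCl, 0.05% low protease BSA, 2.5% glycerol, 0.01% Tween-20. ClpP 10 microg/mL final; 20 min RT; delta FRET normalized to ADEP and DMSO controls.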
gsp agonist – agonists of gsp mutant (McCune-Albright syndrome) | gsp mutant cells, cAMP HTRF, 30 min; control for the full effect not named in the record | actives 0.13% (n = 340,000) | Potency, µM (top dose mostly 76.9 µM), for the others: at the top dose activation (cAMP increase), usual class: activators; active = well fitted activation curve with a large enough effect; inconclusive = small, poorly fitted or top-dose-only effect, or another doubt; inactive = no such curve, though single readings can be large or run the other way; cell line not stated here;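 further: phosphodiesterase inhibitor Ro 20-1724 added with compounds to block cAMP breakdown; potency means the concentration at half of the fitted maximal effect; nearly all actives have a fitted effect of over 60% in size; about a fifth of the inactives were tested at one dose only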
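Cells stably selected in G418 were plated at 2000/well, grown 16-24 hr, then given compounds in DMSO with the PDE inhibitor […] (300 uM solution added) for 30 min at 37C; cAMP was read by HTRF.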
Numbers without * were called inactive; [ ] = dose if it differs, or a comment.

Screening CSCCC(NC(=O)COc1ccccc1)C(=O)NC1CCC(C)CC1 (stereo not given) returned D2 PAM -18.9, gsp antagonist 2.6%, TRPV1 PAM -24.5, ClpP mod -2.5% and gsp agonist -2.1%.
`CC1=NNC(=O)C1CC(=O)N/N=C/c1sccc1C` (stereo not given) gave Menin MLL FP FL 2.6, Sfp inh -0.4%, D2 PAM -6.4, gsp antagonist 0.4%, TRPV1 PAM -6.0 and gsp agonist -30.6%[15.4 µM].
C=CCN1C(=O)c2ccc(C(=O)NCC(c3ccccc3)N(C)C)cc2C1=O (stereo not given) was read as Sfp inh 12.9%, D2 PAM -11.2, gsp antagonist 1.4%, TRPV1 PAM -11.5, ClpP mod -1.5% and gsp agonist -33.2%.
For CCOc1ccc(C2C(C(=O)c3ccco3)=C(O)C(=O)N2CCN2CCOCC2)cc1OCC (stereo not given) the results were Menin MLL FP FL -2.4, Sfp inh -6.8%, D2 PAM -9.3, gsp antagonist -4.5%, TRPV1 PAM -4.6, ClpP mod 6.2% and gsp agonist 0.1%.
Cc1ccc(-c2csc3ncn(CC(=O)OC(C)C)c(=O)c23)cc1 was read as Menin MLL FP FL -7.0, Sfp inh -7.5%, D2 PAM 5.1, gsp antagonist -7.3%, TRPV1 PAM -1.6 and gsp agonist 0.9%.
Screening CCOC(=O)c1ccc(NC(=O)CSc2nnc(COc3ccccc3OC)n2C)cc1 returned Menin MLL FP FL 5.5, Sfp inh 11.2%, D2 PAM -8.2, gsp antagonist -18.2%, TRPV1 PAM -9.0, ClpP mod 1.5% and gsp agonist -4.7%.
Screening CCOC(=O)C1CCN(c2ncnc3c2oc2ccccc23)CC1 returned Menin MLL FP FL -1.9, Sfp inh -5.1%, D2 PAM 1.1, gsp antagonist -18.8%, TRPV1 PAM -21.9, ClpP mod -1.8% and gsp agonist -56.1%[inhibitor].
For Nc1cnc(-c2ccccc2)nc1Cl the results were Menin MLL FP FL -1.2, Sfp inh -5.7%, D2 PAM 1.7, gsp antagonist 8.2%, TRPV1 PAM -7.3, ClpP mod 0.8% and gsp agonist -1.9%[15.4 µM].
For Cc1ccc(C2C3=C(CCCC3=O)Nc3c2c(C)nn3-c2ccccn2)o1 (stereo not given) the results were Menin MLL FP FL -6.1, Sfp inh 4.8% and TRPV1 PAM -21.4.
Screening Cc1ccccc1-c1cc(C(=O)N/N=C/c2cccnc2)c2ccccc2n1 returned Sfp inh 12.1%, D2 PAM -14.4, gsp antagonist -10.6%, TRPV1 PAM 5.6, ClpP mod 2.4% and gsp agonist -36.9%[inhibitor].
Screening CCOc1ccc(C(=O)CCC(=O)NNC(=O)c2ccncc2)cc1 returned D2 PAM -3.5, gsp antagonist 4.2%, TRPV1 PAM 6.0, ClpP mod -21.4% and gsp agonist -3.6%.
For O=C(Cc1ccccc1)Nn1c(-c2ccccc2F)nc2ccccc2c1=O the results were Menin MLL FP FL -7.0, Sfp inh -0.4%, D2 PAM -4.1, gsp antagonist 8.2%, TRPV1 PAM 6.8 and gsp agonist 0.6%[15.4 µM].
Screening COC(=O)C1C2CC3c4[nH]c5cc(OC)ccc5c4CCN3CC2CC(O)C1OC (stereo not given) returned D2 PAM -18.0, gsp antagonist -3.6% and ClpP mod -6.5%.
Screening COCCCN1C(=O)/C(=C\c2cccs2)C(C(=O)OC)=C1C returned Menin MLL FP FL 1.5, Sfp inh 7.0%, D2 PAM -5.7, gsp antagonist 5.5%, TRPV1 PAM 12.7, ClpP mod 0.9% and gsp agonist -26.9%.
O=C(CSc1nc2ccccc2nc1N1CCOCC1)Nc1ccccc1F was read as Menin MLL FP FL 4.5, Sfp inh -1.0%, D2 PAM -2.8, gsp antagonist -12.6%, TRPV1 PAM -22.3, ClpP mod -4.7% and gsp agonist -48.4%.
CC(=O)NCCC(=O)Nc1cc(S(=O)(=O)Nc2ccc(Cl)cc2)ccc1N1CCCC1 was read as Menin MLL FP FL -7.2, Sfp inh 79.4µM*, D2 PAM -11.8, gsp antagonist -6.9%, TRPV1 PAM -0.2 and gsp agonist -9.8%[15.4 µM].
COc1ccccc1N1CC=C(c2cccc([N+](=O)[O-])c2)NC1=O was read as Menin MLL FP FL -0.5, Sfp inh -10.7%, D2 PAM 1.5, gsp antagonist -0.7%, TRPV1 PAM 2.5, ClpP mod -1.2% and gsp agonist 6.8%.
`CCOC(=O)c1c(NC(=O)c2ccc(Cl)cc2)csc1C` gave Menin MLL FP FL 3.5, Sfp inh 19.9%, D2 PAM 5.1, gsp antagonist 2.1%, TRPV1 PAM 0.0, ClpP mod 3.9% and gsp agonist -5.3%.
CCC(Sc1nc(=O)cc(N)n1CCc1ccccc1)C(=O)Nc1cc(C)on1 (stereo not given) was read as Menin MLL FP FL -1.4, Sfp inh 19.6%, D2 PAM -5.2, gsp antagonist 5.7%, TRPV1 PAM 16.4, ClpP mod -2.2% and gsp agonist -62.6%[inhibitor].
`C=CCC(=O)OCC(=O)Nc1ccc(Cl)cn1` gave Menin MLL FP FL 0.4, Sfp inh 21.7%, D2 PAM 6.1, gsp antagonist -7.0%, TRPV1 PAM -1.2, ClpP mod -0.4% and gsp agonist -11.3%.
CN(C)c1nc(Oc2ccc(=O)n(C)n2)nc(N2CCOCC2)n1 was read as Menin MLL FP FL 2.7, Sfp inh 8.6%, D2 PAM -11.1, gsp antagonist -7.2%, TRPV1 PAM 6.5, ClpP mod 1.4% and gsp agonist -10.8%.
Screening O=C1Nc2ccc(S(=O)(=O)N3CCCC3C(=O)O)c3cccc1c23 (stereo not given) returned Menin MLL FP FL 3.4, Sfp inh 19.9%, D2 PAM -8.1, gsp antagonist -2.5%, TRPV1 PAM 2.3, ClpP mod -24.0% and gsp agonist -8.8%.
Screening O=C1OC(CN(Cc2ccccc2)Cc2ccccc2)CN1N=Cc1ccc([N+](=O)[O-])o1 (stereo not given) returned D2 PAM -1.0, gsp antagonist -10.5% and gsp agonist -0.9%.
For COc1ccc(CN2CCC(CO)(Cc3cccc(C(F)(F)F)c3)CC2)cc1Cn1cccn1 the results were Menin MLL FP FL 1.5, Sfp inh 1.4%, D2 PAM -21.9, gsp antagonist 10.2%, TRPV1 PAM -5.8, ClpP mod 1.9% and gsp agonist -13.0%.
`CCOC(=O)c1nnn(CC(=O)N2N=C(c3ccc(Cl)cc3)CC2c2ccccc2)c1C(=O)OCC` (stereo not given) gave Menin MLL FP FL 0.4, Sfp inh 15.4%, D2 PAM -3.2, gsp antagonist 2.1%, TRPV1 PAM 12.8, ClpP mod -9.5% and gsp agonist inconclusive.
CN1CCCN(Cc2ccc(Cl)cc2Cl)CC1 was read as Menin MLL FP FL 1.7, Sfp inh inconclusive, D2 PAM -30.5, gsp antagonist 0.9%, TRPV1 PAM -3.0, ClpP mod -0.1% and gsp agonist -15.7%.
For CCc1ccc(-n2c(=S)sc3c(=O)n(-c4ccccc4)c(SCC(=O)O)nc32)cc1 the results were Menin MLL FP FL 8.4, Sfp inh 17.4%, D2 PAM 2.9, gsp antagonist -8.1%, TRPV1 PAM 5.1 and gsp agonist -0.1%.
For Cc1ccc(C)c(NC(=S)N(C)CCc2ccccn2)c1 the results were Menin MLL FP FL 4.5, Sfp inh -29.6%, D2 PAM -22.8, gsp antagonist 13.5%, TRPV1 PAM 5.2, ClpP mod 0.3% and gsp agonist 0.0%.
O=c1oc(-c2ccc([N+](=O)[O-])cc2)nc2ccccc12 was read as Menin MLL FP FL -3.5, Sfp inh 15.1%, D2 PAM 3.1, gsp antagonist -2.4%, TRPV1 PAM 12.1, ClpP mod 0.7% and gsp agonist 8.4%.
COc1cc(NC(=O)C2CCCN2S(=O)(=O)c2ccc3c(c2)CCC(=O)N3)cc(OC)c1 (stereo not given) was read as Menin MLL FP FL 0.1, Sfp inh 23.4%, D2 PAM -0.3, gsp antagonist -6.4%, ClpP mod -2.8% and gsp agonist 29.3%.
`Cc1cccc([C@@H]2[C@@H]3C(=O)N(Cc4ccccc4)C(=O)[C@@H]3[C@]3(Cc4ccc(Cl)cc4)C(=O)N(c4ccccc4)C(=O)N23)c1` gave Menin MLL FP FL -1.0, Sfp inh 14.2%, D2 PAM -7.4, gsp antagonist -3.8%, TRPV1 PAM 14.1, ClpP mod -0.6% and gsp agonist 29.0%.
`Cc1nc2ccc(Br)cn2c1C(=O)N/N=C\c1ccc(C(C)C)cc1` gave Menin MLL FP FL -0.9, Sfp inh 11.5%, D2 PAM 11.6, gsp antagonist 0.3%, TRPV1 PAM 12.1, ClpP mod -0.1% and gsp agonist -28.3%.
`CCOC(=O)N1CCN(c2cc(NCCO)c([N+](=O)[O-])c3nonc23)CC1` gave Menin MLL FP FL -0.6, Sfp inh 4.6%, D2 PAM -3.6, gsp antagonist -6.4%, TRPV1 PAM -2.9, ClpP mod 0.4% and gsp agonist 14.0%[15.4 µM].
For CC(O)CNCc1ccccc1C(F)(F)F (stereo not given) the results were Menin MLL FP FL -1.2, Sfp inh 17.4%, D2 PAM 4.4, gsp antagonist -3.8%, TRPV1 PAM -1.4 and gsp agonist 22.3%.
`COC(=O)c1ccccc1C(=O)N1CCCC(CNC(=O)c2ccc(F)cc2)C1` (stereo not given) gave Menin MLL FP FL -1.8, Sfp inh 11.1%, D2 PAM -7.2, gsp antagonist 1.8%, TRPV1 PAM -3.1 and gsp agonist inconclusive.
Screening CC1CCN(Cc2c(C(=O)N/N=C/c3ccc(C(C)C)cc3)nnn2-c2nonc2N)CC1 returned Menin MLL FP FL -0.2, Sfp inh 10.0%, D2 PAM -7.1, gsp antagonist -19.0%, TRPV1 PAM -17.3, ClpP mod -1.1% and gsp agonist -0.9%[15.4 µM].
`CCCc1nnc(NC(=O)CN2C(=O)c3ccccc3S2(=O)=O)s1` gave Menin MLL FP FL 4.0, Sfp inh 22.4µM*, D2 PAM -13.6, gsp antagonist 2.0%, TRPV1 PAM -22.5, ClpP mod -0.9% and gsp agonist -20.7%.
